From PubChem
Anaer choline gr: choline-fed anaerobic bacterial growth inhibition | AID 1963822 | Gram-negative bacterium anaerobic choline minimal medium, absorbance growth; hits give low values; many inactives read as strong as hits in the columns shown | calls only | hit rate 0.2% among 55,000;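 active = growth z-score on choline under -2 at 7 or 20 h with little or no fall on glycerol, limits in tiers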;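 note: stock transfer was 300 nL into about 50 µL; the organism is E. coli; final concentration not given here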
Anaer choline gr early: second read-out of Anaer choline gr, no call of its own (marks repeat the call); z-score; measured here: choline growth z-score, timepoint 1;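 score of optical density at 7 h as mean of two plates; lower means less growth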
* = called active by the depositor; i = inactive; + = active, no number; & = joins results of further samples. This is a subset; rates above refer to the full screens.

Sample of the layout, two compounds:
SMILES | Anaer choline gr | Anaer choline gr early
CS(=O)(=O)N1CC(C(=O)NCc2ccccc2)Oc2ccccc21 (stereo unspecified) | i | -1.59
Cc1cccc(CNc2nc3nc(C(C)C)cc(=O)n3[nH]2)c1 | i | 1.18

All compounds of this part (from the top)
SMILES | Anaer choline gr | Anaer choline gr early
CS(=O)(=O)N1CC(C(=O)NCc2ccccc2)Oc2ccccc21 (stereo unspecified) | i | -1.59
Cc1cccc(CNc2nc3nc(C(C)C)cc(=O)n3[nH]2)c1 | i | 1.18
CC(C)CCCC(C)NC(C)C (stereo unspecified) | i | 0.3
Cc1[nH]nc2c1C(C(=O)c1cc3ccccc3o1)CC(=O)N2 (stereo unspecified) | i | 1.76
COc1cc(OC)c(CC2C(=O)Nc3ccc(Br)cc32)c(OC)c1 (stereo unspecified) | i | -0.55
CCc1ccc(NC(=O)c2cnn(-c3ccc(Cl)cc3)c2C2CCNCC2)cc1 | i | -0.59
O=C(NCc1ccc(F)cc1)c1ccc2c(=O)nc3c(-c4ccccc4)n[nH]n3c2c1 | i | 0.39
O=C(c1ccc(F)cc1)N1CCc2cc(CNS(=O)(=O)c3cccc(Cl)c3)ccc21 | i | -0.94
CCOc1c(Nc2ccc(OC)cc2OC)c(=O)c1=O | i | -0.42
O=C(NCc1ccc2c(c1)OCO2)C1CCCN(C(=O)c2cc(-c3ccncc3)n[nH]2)C1 (stereo unspecified) | i | 1.31
CN1C(=O)C2CCCCN2c2ccc(C(=O)N3CCC(C(N)=O)CC3)cc21 (stereo unspecified) | i | -1
O=C(Nc1nc2ccccc2s1)c1ccc(S(=O)(=O)N2CCc3ccccc3C2)cc1 | i | 0.64
Cc1ccc(Cc2nc3ccccc3nc2SCC(=O)NCC2CCCO2)cc1 (stereo unspecified) | i | 0.36
Cc1cccc(OCc2nc3c4ccccc4ncn3n2)c1C | i | 0.34
O=S(=O)(c1ccc(F)cc1)N1CCC2(CC1)NCCN=C2NCc1ccccc1F | i | -0.17
NCCCCCc1cnc[nH]1 | i | 0.37
Cc1nc2sccn2c(=O)c1NC(=O)CC(C)(C)C | i | -0.89
O=C1Nc2ccccc2C12CCN(S(=O)(=O)c1ccccc1F)C2 (stereo unspecified) | i | -0.3
CCc1ncc(C(=O)Nc2cccc(Cl)c2)c(C)n1 | i | -1.75
CN1CCN(C(=O)Nc2ccccc2)c2cccnc21 | i | 1.13
CCSc1ccc(-c2sc(-c3ccccc3)nc2C)nn1 | i | 1.55
CCc1ccc(NC(=O)Nc2ccc3c(c2)oc(=O)n3C)cc1 | i | 0.79
CC(=O)NCc1nc(-c2ccc(C)cc2)no1 | i | -0.51
CCOc1ccc(NC(=O)c2cc3c(C)nn(-c4ccc(F)cc4)c3s2)cc1 | i | -0.21
CCCOc1cccc(C2Nc3ccccc3NC3=C2C(=O)CC(C)(C)C3)c1 (stereo unspecified) | i | -1.2
SMILES | Anaer choline gr | Anaer choline gr early
Cc1ccc(CN(C(=O)CC(C)C)c2nc3nc(C)c(C)c(=O)n3[nH]2)cc1 | i | -0.29
CCC(NC(=O)c1cn2c(n1)CCCC2)c1cccs1 (stereo unspecified) | i | 0.52
O=C(Nc1ccc(F)c(Cl)c1)C1CCC(CNS(=O)(=O)c2cccc3cccnc23)CC1 (stereo unspecified) | i | 0.63
Cc1ccc(CNS(=O)(=O)c2cc(-c3ccc(=O)[nH]n3)cc(C)c2C)cc1 | i | 1.23
CCOc1ccccc1C(=O)NCCOc1ccc(-c2ccc(C)cc2)nn1 | i | -1.17
CCCC(=O)Nc1ccc2c(c1)nc(CN1CCOCC1)n2C(C)C | i | -0.67
Cc1cc(C)c(NC(=O)C2Nc3cc(C)ccc3S(=O)(=O)N2)c(C)c1 (stereo unspecified) | i | -0.23
Cc1cc(C(=O)NCc2cccc(Cl)c2)c2c(=O)n(C)c(=O)n(C)c2n1 | i | 0.62
COc1ccc(-c2onc(C)c2C)cc1S(=O)(=O)N1CCCC(CN2CCc3ccccc3C2)C1 (stereo unspecified) | i | -0.95
Cc1nc2nc(C)c(Cc3ccccc3)c(=O)n2[nH]1 | i | -0.75
O=C(NCCn1c(C(F)(F)F)nc2cccnc21)c1ccc2c(c1)OCO2 | i | -0.44
N#CC(=C1SCC(c2ccc(Cl)cc2Cl)S1)n1ccnc1 (stereo unspecified) | i | 0.31
COc1ccc(NS(=O)(=O)c2c(C)nn(-c3ccc(-c4ccccc4)nn3)c2C)cc1OC | i | 0.23
O=C(CCc1nc(CSc2nc3ccccc3s2)no1)Nc1ccc2c(c1)OCO2 | i | -0.57
O=S(=O)(NCCN1CCOCC1)c1ccc(-c2nnc(C3CCCC3)o2)s1 | i | -1.01
CCc1onc(C)c1C1CCCN1Cc1cccc(F)c1 (stereo unspecified) | i | -0.5
CCN1C(=O)CCSc2ccccc21 | i | -1.2
O=C(Cn1nc2c(N3CCOCC3)nc3ccccc3n2c1=O)NCc1ccc(Cl)cc1 | i | -0.42
O=C(NCCCN1CCC(Cc2ccccc2)CC1)c1ccc(N2CCCC2=O)cc1 | i | -0.11
O=C(NCC(c1ccc(Cl)cc1)N1CCOCC1)c1cc(-c2ccc(Br)cc2)on1 (stereo unspecified) | i | 1.81
O=C(c1ccc(-c2nc(-c3ccc(F)cc3)no2)cc1)N1CCCC1 | i | -0.82
CCCCC[C@H](O)/C=C/[C@H]1CC[C@@H](O)[C@@H]1C/C=C\CCCC(=O)O | i | -2.06
CCCNC(=O)CSc1nc2ccccc2nc1Cc1ccccc1OC | i | -0.34
CC1(C)CC(Nc2ncnc3scc(-c4ccccc4)c23)CC(C)(C)N1 | i | 0.92
CCOC(=O)c1noc2ncn(CC(=O)Nc3ccc(F)c(Cl)c3)c(=O)c12 | i | -0.04
SMILES | Anaer choline gr | Anaer choline gr early
O=C(CC1CCN(S(=O)(=O)c2ccccc2)CC1)NCc1ccc2c(c1)OCO2 | i | 0.99
O=C(CCc1nc(CSc2nc3ccccc3o2)no1)Nc1ccc(F)cc1F | i | -0.13
CCN1CCCC1CNC(=O)C1CCN(C2=NS(=O)(=O)C(c3ccc(C)c(C)c3)=C2C)CC1 (stereo unspecified) | i | 0.31
CC/C(=C(/CC)c1ccc(O)cc1)c1ccc(O)cc1 | i | -0.06&-0.21
O=C(CCC1CCCC1)Nc1nnc2n1CCCS2 | i | -1.01
CS(=O)(=O)N1CCN(c2ncnc3c2nnn3Cc2ccccc2)CC1 | i | -0.17
CC1=C(c2ccc(F)cc2)S(=O)(=O)N=C1N1CCCN(C(=O)NC(C)(C)C)CC1 | i | 0.81
Cc1ccc(-n2nc(C)c3c(C)c(CCC(=O)N4CCC(N5CCCCC5)CC4)c(C)nc32)cc1C | i | -0.61
Cc1nn(C)c(C)c1S(=O)(=O)N1CCOc2ccc(COCc3ccccc3F)cc2C1 | i | -0.7
Cc1ccc(C2C3=C(CC(c4ccccc4O)CC3=O)Nc3ncnn32)cc1 (stereo unspecified) | i | -2.29
Cc1oc2ccc(O)c(CN3CCOCC3)c2c1C(=O)OCC(C)C | i | 0.21
COCCNC(=O)CN1CCN(c2ccc(NC(=O)C3CCC3)c(C(=O)O)c2)CC1 | i | 0.63
CS(=O)(=O)Nc1ccc(-c2noc(-c3cncc(Br)c3)n2)cc1 | i | -0.98
O=C(Nc1ccc2c(c1)OCO2)N1CCc2c([nH]c3ccccc23)C1c1ccccc1F (stereo unspecified) | i | 0.28
CCC(=O)Nc1cccc(-c2noc(C3CCCN(C(=O)c4sccc4C)C3)n2)c1 (stereo unspecified) | i | 0.32
O=C(NCc1ccc2c(c1)OCO2)c1ccc2noc(-c3ccc(Cl)cc3)c2c1 | i | 2.29
C=CCn1c(SCC(=O)N(C)c2ccccc2)nc2c([nH]c3ccccc32)c1=O | i | -0.05
Cc1nn(-c2ccccc2)c(-n2cccc2)c1C(=O)N1CCC(Cc2ccccc2)CC1 | i | -1.58
O=c1[nH]c2ccc(NCc3ccccc3F)cc2[nH]1 | i | -0.23
CN(CC(=O)NCc1ccc(Cl)cc1)S(=O)(=O)c1ccc2c(c1)CCCC(=O)N2 | i | 1.97
O=C(Nc1ccccc1Cl)c1ccc(-n2nc(OCc3ccc(Cl)cc3)ccc2=O)cc1 | i | -0.12
NS(=O)(=O)c1ccc(CCNC(=O)c2nc(-c3ccc(N4CCCCC4)cc3)no2)cc1 | i | -0.67
CC1CCN(c2ncnc3c2sc2nc(C(C)C)c4c(c23)CC(C)(C)OC4)CC1 | i | -0.61
O=C(c1cc2cc(Cl)ccc2[nH]1)N1CCN(c2ccc(=O)n(-c3ccccc3)n2)CC1 | i | 1.37
Cc1cccc(-c2nn(-c3ccccc3)c3nc(OCC(=O)NCc4ccccc4C)cc(C)c23)c1 | i | -0.12

Part of the list above, tab-delimited.
smiles	Anaer choline gr	Anaer choline gr early
CCN1CCCC1CNC(=O)C1CCN(C2=NS(=O)(=O)C(c3ccc(C)c(C)c3)=C2C)CC1 (stereo unspecified)	i	0.31
CC/C(=C(/CC)c1ccc(O)cc1)c1ccc(O)cc1	i	-0.06&-0.21

Next entries
SMILES | Anaer choline gr | Anaer choline gr early
Cc1oc(-c2ccccc2)nc1Cn1c(SCC(=O)Nc2ccc(F)cc2)nc2ccccc21 | i | 0.86
N#Cc1nc(-c2ccc(S(=O)(=O)N3CCCCC3)cc2)oc1NCC1CCCO1 (stereo unspecified) | i | 0.98
CCN1CCCc2cc(C(=O)N3CCC4(CC3)OCCO4)sc21 | i | 0.23
Fc1cccc(-c2nnc3sc(-c4ccc5ccccc5n4)nn23)c1 | i | 0.23
CCCCNC(=O)Cc1ccc(-n2c(=O)c3ccccc3n(CC(=O)NC(C)C)c2=O)cc1 | i | 0.39
Cc1c(-c2noc(C(=O)N3CCC(C)CC3)n2)oc2ccccc12 | i | 0.64
Cc1nn2c(SCC(=O)Nc3ccc(F)cc3)nnc2[nH]c1=O | i | -0.19
N#Cc1nc(-c2ccc(S(=O)(=O)N3CCOCC3)cc2)oc1NCC1CCCO1 (stereo unspecified) | i | -0.31
Cc1ccc(-c2nc(C3CCN(C(=O)c4cc(C)cc(C)c4)CC3)no2)cc1 | i | 1.57
CC(C)CCNC(=O)C1(C)CCC(=O)N1CCCN1CCCC1=O (stereo unspecified) | i | -0.11
Cc1nc(-c2cc(S(=O)(=O)N3CCN(c4ccccc4)CC3)c(C)s2)sc1C | i | 0.4
Cc1ccc(-c2nc3ccccc3c3nnc(SC(C)C(=O)NCC4CCCO4)n23)cc1 (stereo unspecified) | i | 0.4
O=c1c2ccccc2oc2ccccc12 | i | 0.25
Cn1c(=O)c2c(nc(Sc3nnc(NC(=O)NC4CCCC4)s3)n2C)n(C)c1=O | i | 1.76
CCN1CCN(S(=O)(=O)c2cc(-c3ccno3)sc2C)CC1 | i | 0.77
CN(C)S(=O)(=O)Nc1ccc2nc(N3CCN(c4ccccc4)CC3)cc(C(=O)O)c2c1 | i | 0.78
Cc1ccc(C2=Nc3cccnc3N(CC(=O)NCCc3ccc(Cl)cc3)C(=O)C2)cc1C | i | 2.76
COc1ccccc1CNC(=O)CN1C(=O)COc2ccc(C)cc21 | i | 2.52
Cc1noc(-c2ccccc2OCC(=O)Nc2nc(C(C)C)cs2)n1 | i | 0.21
CN1C(=O)c2ccc(NC(=O)CCCc3nc(-c4cccnc4)no3)cc2C1=O | i | 0.34
COc1ccc(OC)c(CNC(=O)CN(c2ccc(C)cc2)S(=O)(=O)N(C)C)c1 | i | 0.12
O=C(Cc1csc(NC(=O)Nc2ccc(Cl)cc2)n1)Nc1cccc(Cl)c1 | + | -1.2*
COc1ccc(CC(=O)Nc2ccc(-c3ccc4ccccc4n3)cc2)cc1 | i | 0.06
CN(CC(=O)Nc1cccc(Cl)c1)S(=O)(=O)c1ccc2c(c1)CCCC(=O)N2 | i | -0.94
COc1ccc(Cl)cc1N(C)C(=O)c1cc2cc3ccc(OC)c(Cl)c3nc2s1 | i | 0.45
SMILES | Anaer choline gr | Anaer choline gr early
CN(CCc1noc(-c2ccc(Cl)cc2)n1)S(=O)(=O)c1cccc2nsnc12 | i | 0.08
O=C(Nc1cccc(Cl)c1)C1CCCN(C(=O)c2cc(-c3ccccn3)n[nH]2)C1 (stereo unspecified) | i | -0.02
CN(C1CCCCC1)S(=O)(=O)c1ccc2[nH]c(=O)sc2c1 | i | -1.74
O=C(c1cc(-c2ccncc2)n[nH]1)N1CCCC(C(=O)N2CCN(c3ccccn3)CC2)C1 (stereo unspecified) | i | -1.15
CCc1ccc(N2NC(=O)C(C)(C)C2=O)cc1 | i | -1.3
Brc1ccc(OCc2nc3c4ccccc4ncn3n2)cc1 | i | 0.73
Cc1nc2nc3c(c(Nc4cccc(Cl)c4)n2n1)CCC3 | i | -0.78
Cn1c(CCc2cccc(NC(=O)CN3C(=O)c4ccccc4C3=O)c2)nc2ccccc21 | i | 0.21
CCn1cnc(S(=O)(=O)N2CCCC(C(=O)N3CCc4ccccc4C3)C2)c1 (stereo unspecified) | i | -0.3
CCOC(=O)C1CCN(C(=O)c2ccc(CNS(=O)(=O)c3ccc(C)cc3)cc2)CC1 | i | -1.17
CCCCn1cnc2c(oc3ccccc32)c1=O | i | -0.34
Cc1ccc(-c2c(C)noc2C)cc1S(=O)(=O)NC1CCN(Cc2ccccc2)CC1 | i | -1.29
CCn1c(=O)cc(SCC(=O)N2CCCC2)c2ccccc21 | i | -1.43
COc1ccc2c(c1)NC1(CCN(S(=O)(=O)c3ccc4c(c3)CCCC4)CC1)c1cccn1-2 | i | 0.37
CC(=O)N1CCN(c2csc3ccccc3c2=O)CC1 | i | -0.09
O=C(NCCc1ccc(Cl)cc1)c1ccc(-n2nnc3cccnc32)cc1 | i | 1.08
CNC(=O)Oc1ccc2c(c1)[C@]1(C)CCN(C)[C@@H]1N2C | i | 0.42&0.2&-0.01

Record cards, as listed above. Screens in order: Anaer choline gr, Anaer choline gr early
Record of `Cc1nc2sccn2c(=O)c1NC(=O)CC(C)(C)C` : i, -0.89
Record of `COc1cc(OC)c(CC2C(=O)Nc3ccc(Br)cc32)c(OC)c1` (stereo unspecified) : i, -0.55
Record of `O=C(NCc1ccc(F)cc1)c1ccc2c(=O)nc3c(-c4ccccc4)n[nH]n3c2c1` : i, 0.39
Record of `COc1ccc(-c2onc(C)c2C)cc1S(=O)(=O)N1CCCC(CN2CCc3ccccc3C2)C1` (stereo unspecified) : i, -0.95
Record of `Cc1oc2ccc(O)c(CN3CCOCC3)c2c1C(=O)OCC(C)C` : i, 0.21
